Compound activity: PubChem, Johns Hopkins Ion Channel Center
KCNQ2 block: KCNQ2 channel blockers in CHO-K1 cells – cell-based, FluxOR thallium flux, B-score, primary screen (AID 2156). O88943. B-score at 10 µM. actives 1.1% (n = 310,000). 20 min; active compounds read low; only compounds with negative scores are shown here; some inactives read as strong as hits;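 active means fluorescence ratio B-score at most minus 3 library SDs, with starting brightness B-score within 2 library SDs, cut at about -5.5 in these data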
Target sequence (O88943 whole entry, looked up): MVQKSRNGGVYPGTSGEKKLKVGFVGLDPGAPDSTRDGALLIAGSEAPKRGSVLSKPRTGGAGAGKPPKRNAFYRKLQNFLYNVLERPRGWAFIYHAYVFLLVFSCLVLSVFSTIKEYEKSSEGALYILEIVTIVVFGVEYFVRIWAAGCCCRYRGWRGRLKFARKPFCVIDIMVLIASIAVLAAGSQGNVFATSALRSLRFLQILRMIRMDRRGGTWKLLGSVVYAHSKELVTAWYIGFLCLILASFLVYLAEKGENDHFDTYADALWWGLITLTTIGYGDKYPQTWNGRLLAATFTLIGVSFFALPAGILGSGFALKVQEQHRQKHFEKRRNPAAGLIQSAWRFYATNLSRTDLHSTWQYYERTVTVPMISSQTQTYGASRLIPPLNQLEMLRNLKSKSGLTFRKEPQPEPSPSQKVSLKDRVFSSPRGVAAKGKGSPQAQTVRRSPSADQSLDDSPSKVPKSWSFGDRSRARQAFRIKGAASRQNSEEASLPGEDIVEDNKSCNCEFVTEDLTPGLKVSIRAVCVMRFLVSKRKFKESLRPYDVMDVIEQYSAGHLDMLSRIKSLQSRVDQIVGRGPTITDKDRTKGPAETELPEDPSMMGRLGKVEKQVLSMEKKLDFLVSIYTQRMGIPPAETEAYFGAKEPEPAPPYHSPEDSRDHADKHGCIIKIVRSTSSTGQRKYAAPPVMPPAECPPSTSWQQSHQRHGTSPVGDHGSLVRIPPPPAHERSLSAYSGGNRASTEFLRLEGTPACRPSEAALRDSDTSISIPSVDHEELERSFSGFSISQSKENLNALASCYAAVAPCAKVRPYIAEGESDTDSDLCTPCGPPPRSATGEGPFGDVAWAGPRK
KCNQ2 block baseline: further read-out of KCNQ2 block, marked with its call; B-score; measured here: initial fluorescence intensity artifact check;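 brightness before thallium and not channel activity; 0 = typical well and far values either way flag optical interference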
* = called active by the depositor; i = inactive. The list is partial; rates above refer to the full screens.

SMILES | KCNQ2 block | KCNQ2 block baseline
O=C(CN1C2=NCCN2c2ccccc21)C12CC3CC(CC(C3)C1)C2 | i | -0.3
O=C(O)c1ccccc1-n1ncc2c1/C(=C/c1ccc(Cl)cc1)CC2 | i | 0.64
CNC(=S)NNC(=O)c1sccc1OCc1ccc(C)cc1 | i | 0.26
O=C1/C(=C/c2cccnc2)Oc2cc(OS(=O)(=O)c3ccc(F)cc3)ccc21 | i | -0.34
COc1ccccc1N1CCN(C(=O)CSc2nc(-c3ccccc3)cc(=O)[nH]2)CC1 | i | -2.6
CCn1c(C)c(C)c2cc(C(=O)N3CCc4ccccc4C3)ccc21 | -6* | 2*
Cn1nc(Oc2ncc(C(F)(F)F)cc2Cl)cc1C(F)(F)F | i | -0.2
CCOC(=O)C1CCN(C(=O)Cn2nc(CC)n3cccc3c2=O)CC1 | i | 0.81
COc1ccc(-c2cc(C(=O)Nc3c(C)n(C)n(-c4ccccc4)c3=O)c3ccccc3n2)cc1OC | i | 0.36
CC12COC3(C(=O)Nc4ccc5ccccc5c4)CC1CCC32C (configuration not stated) | i | 1.2
Cc1ccccc1CSCCNC(=O)COc1ccc(Cl)cc1 | -8.6* | 0.54*
CSc1ncc(C(=O)Nc2ccccc2F)c(-c2ccccc2)n1 | i | 1.2
Cc1ccc(SCCNC(=O)c2ccccc2)cc1 | i | 0.02
COc1cccc(Cn2nnc(C(=O)Nc3cc(C)ccc3OC)c2N)c1 | i | 0.66
C=CCN(CC=C)CCOc1cccc(Oc2ccccc2)c1 | i | -0.72
CCCCn1nc(NC(=O)CC(C)C)c2cc3cc(OC)ccc3nc21 | i | 0.14
Cc1cccc(-c2nc(CSCC(=O)N3CCN(c4ccccn4)CC3)c(C)o2)c1 | i | -2
O=C(CSc1nnc(-c2ccccc2O)o1)N1CCCCC1 | i | 2.8
O=[N+]([O-])CC(=Nc1ccc(F)cc1)N/N=C\c1oc(O)c2ccccc12 | i | -0.21
COc1ccc(NC(=O)CN(C)C(=O)c2ccc(N3CCCCCC3)c([N+](=O)[O-])c2)cc1 | i | -0.01
CC(NC(=O)/C(C#N)=C/c1ccco1)c1ccccc1 (configuration not stated) | i | 0.88
O=C1CCCN1CC(CN1CCOCC1)Sc1nnnn1-c1ccccc1 (configuration not stated) | i | 0.65
COc1cc(CC(=O)OCC(=O)N2C(C)CCCC2C)cc(OC)c1OC (configuration not stated) | i | 0.09
Cc1cccn2c(=O)c(/C=C(\C#N)C(N)=O)c(N3CCN(Cc4ccc5c(c4)OCO5)CC3)nc12 | i | 0.01
Cc1c(NC(=O)CSCc2c(F)cccc2Cl)c(=O)n(-c2ccccc2)n1C | i | -0.58
O=C(Nc1cccnc1)c1cc(-c2cccnc2)nc2ccc(Br)cc12 | i | -0.78
Cc1nn(-c2ccccc2)c2c1C(c1ccc(F)cc1)C(C#N)=C(N)O2 (configuration not stated) | i | -0.03
Cc1ccc(C)c(S(=O)(=O)Nc2ccc(S(=O)(=O)Nc3onc(C)c3C)cc2)c1 | i | 0.91
O=S(=O)(c1ccccc1)N1CCN=C1SCc1ccccc1Cl | i | 0.29
Cc1ccccc1OCCn1ccnc1 | i | 2.3
Cc1ccc(CN2CCN(/N=C\C=C\c3ccccc3)CC2)cc1 | i | -1.9
CCSc1cnn(-c2ccccc2)c(=O)c1Cl | i | -0.23
CCS(=O)(=O)c1ccc(O)c(NC(=O)COc2ccc(Br)cc2)c1 | i | -0.01
CCOC(=O)C1CCN(C(=O)Nc2cccc(OC)c2)CC1 | i | 0.03
COC(C[C@@H]1O[C@H]1C(=O)[C@@H](C)OCc1ccccc1)OC | i | 0.81
Cc1ccc(S(=O)(=O)Nc2ccc(-n3cnnn3)cc2)cc1 | i | 1.9
CNC(=O)c1oc(-c2ccccc2)nc1C | i | 1.1
O=C(c1ccc(COCC(F)(F)F)o1)N1CCCC1 | i | -0.32
COC(=O)C1CCN(S(=O)(=O)c2cc3c4c(c2)CCN4C(=O)CC3)CC1 | i | -1.2
O=C(N/N=C/c1cc(Cl)cc([N+](=O)[O-])c1O)c1cc(-c2ccccn2)nc2ccccc12 | i | 0.98
CCCC(c1nnnn1C1CCCCC1)N1CCN(C2CCCC2)CC1 (configuration not stated) | i | 0.64
Brc1cccc(OCCn2ccnc2)c1 | i | -0.1
COc1ccc(CNC(=O)C2COc3ccccc3O2)c(OC)c1 (configuration not stated) | i | 0.61
Cn1c(SCc2nc3ccccc3[nH]2)nnc1-c1cccs1 | i | -1.7
CCC1Oc2ccccc2N(CC(=O)NC2CC2)C1=O (configuration not stated) | i | 2.8
Cc1c(Cl)cnc(NC(=O)COC(=O)Cc2coc3ccc4ccccc4c23)c1Cl | i | -0.2
CCCCn1c(N)c(N(CCOC)C(=O)c2ccc(Cl)c(S(=O)(=O)N3CCCCC3)c2)c(=O)[nH]c1=O | i | -1.1
O=C(CSc1ccc(-c2nc3ccccc3[nH]2)cn1)Nc1ccc(S(=O)(=O)NC2CC2)cc1 | i | 0.01
CCOc1ccc(NC(=O)CCS(=O)(=O)c2ccc3c(c2)CCCN3C(C)=O)cc1 | i | -0.58
CCCN1C(=O)/C(=C/c2c(N3CCNC(=O)C3CC(=O)OCC)nc3c(C)cccn3c2=O)SC1=S (configuration not stated) | i | 9.9
O=C(O)C(Cc1ccccc1)Nc1ccc([N+](=O)[O-])cc1[N+](=O)[O-] (configuration not stated) | i | 0.01
CCc1ccc(NC(=O)CSc2nnc(-c3cccs3)n2CC)cc1 | i | 0.14
Cc1cc(Oc2ccccc2F)nc(NCc2ccccc2)n1 | i | 0.69
CC1CCCN(C(=O)CSCC(=O)N=c2sc3ccccc3n2C)C1 (configuration not stated) | i | -0.65
CCNC(=O)c1ccccc1-c1nc(-c2ccccc2Cl)no1 | i | 0.05
Cc1ccccc1-n1c(C)nnc1SCC(=O)N1CCc2ccccc2C1 | i | 0.46
CSc1ccc(/C=N\NC(=O)COc2ccc(Cl)cc2Br)cc1 | i | 1.6
CC(=O)NCCC(=O)N1CCCC(N2CCN(c3cccc(Cl)c3)CC2)C1 (configuration not stated) | i | 0.91
Cc1ccc(-c2c(C#N)c(N)nc3c2CCCC3)o1 | i | 1.1
Cc1nc(CSc2nnc(Nc3cccc(C)c3C)s2)cs1 | i | -0.18

More entries.
| Compound | KCNQ2 block | KCNQ2 block baseline |
| --- | --- | --- |
| COc1cccc(/C=C/C(=C2/C(=O)N(c3ccccc3)N=C2C)c2ccc(C)cc2)c1OC | i | 1.2 |
| COC(=O)c1c(C)cc(O)c(C=O)c1O | i | -1 |
| Cc1c(NS(=O)(=O)c2ccc3nc(COc4ccccc4Cl)[nH]c3c2)c(=O)n(-c2ccccc2)n1C | i | 1.4 |
| CCOC(=O)C1CCCN(C(=O)C2CC(=O)N(c3ccc(C)cc3)C2)C1 (configuration not stated) | i | 0.05 |
| COc1cc([N+](=O)[O-])cc(/C=N/NC(=O)c2cc(C)nc3ccccc23)c1O | i | 0.07 |
| Nc1nnc(SCC(=O)OCC(=O)Nc2ccc(Br)cc2)s1 | i | 0.51 |
| COc1ccc(Cl)cc1NC(=O)c1cnccn1 | i | -0.62 |
| CCc1nc(SCC(=O)NNC(=O)c2ccc(C)cc2)c2ccccc2n1 | i | -0.25 |
| COc1cc(/C=N/N2CCOCC2)ccc1OCc1ccccc1 | i | -0.22 |
| CC(C)[C@H](NC(=O)c1ccccc1)C(=O)OCC(=O)NCCc1ccc(F)cc1 | i | 0.5 |
| CC(CN1CCCC1)OC(=O)COc1ccccc1 (configuration not stated) | i | 0.2 |
| O=Cc1c(Nc2ccccc2Cl)nc2ccccn2c1=O | i | -0.58 |
| Cc1cccc(NC(=S)NC2CCCC2)c1 | i | 0.84 |
| Cc1ccc(S(=O)(=O)N2CCN(S(=O)(=O)c3ccccc3)C2)cc1 | i | 2.4 |
| Brc1cccc(CNCc2ccncc2)c1 | i | 1.4 |
| O=C1C(=O)N(CCCN2CCOCC2)C(c2ccc(Cl)cc2)/C1=C(/O)c1ccc(F)cc1 (configuration not stated) | i | 0.07 |
| COc1ccc(N2C(=O)Cc3c2nc(N)c(C#N)c3N)cc1 | i | 0.04 |
| COc1ccc(Cn2nnnc2C(c2cccs2)N2CCSCC2)cc1 (configuration not stated) | i | -1.3 |
| O=C(OCc1ccccc1F)c1cc([N+](=O)[O-])ccc1N1CCOCC1 | i | -2.3 |
| Cc1ccc(CNc2cnccn2)s1 | i | -0.74 |
| COCCCn1c(=O)c2sccc2n2c(CCCC(=O)NCC3CCCO3)nnc12 (configuration not stated) | i | -1.6 |
| COc1ccc(S(=O)(=O)N2CCNCC2)cc1 | i | 0.22 |
| O=S(=O)(N/N=C\c1cn(-c2ccccc2)nc1-c1ccccc1)c1ccccc1 | i | 0.34 |
| O=C(COc1cccc(Br)c1)N/N=C1\CCCc2ccccc21 | i | -0.06 |
| CCC(C)NC(=O)C(NS(=O)(=O)c1cccc2nsnc12)c1ccccc1 (configuration not stated) | i | 0.18 |
| CC(C)OC(=O)/C(C#N)=C/c1ccc(-c2ccc(SC(F)F)cc2)o1 | i | 1.3 |
| CCn1nc(C)c(NC(=O)/C=C/c2ccc(OC)c(COc3ccc(Br)cc3)c2)c1C | i | -1.6 |
| CCOc1ccccc1C1NC(=O)NC(C)=C1C(=O)OCc1ccco1 (configuration not stated) | i | 1.2 |
| CCc1ccc(N2CC(C(=O)Nc3ccc(S(=O)(=O)N4CCOCC4)cc3)CC2=O)cc1 (configuration not stated) | i | 0.59 |
| Cc1ccc(S(=O)(=O)CCC(=O)Nc2nc(-c3cccnc3)cs2)cc1 | i | -0.39 |
| COc1ccc(S(=O)(=O)N2CCN(C(=O)[C@@H]3CCC(=O)N3C3OC(=O)c4ccccc43)CC2)cc1 (some centres not stated) | i | -0.43 |
| CC(C)N1CCC(NC(=O)Nc2ccccc2)CC1 | i | -0.22 |
| CCn1cc(C(=O)NCCC(=O)OC)c(=O)c2cc3c(cc21)OCO3 | i | 0.78 |
| CN1CCCN(C(=O)c2cc3c(s2)CCCC3)CC1 | i | -0.3 |
| COc1ccc(CN2C(=O)c3ccccc3C2=O)cc1C(=O)Nc1ccc(C)cc1C | i | 0.81 |
| Cc1csc(NC(=O)CSc2nnc(C)c(=O)n2N)n1 | i | -0.33 |
| Cc1ccc(CC2CC(=O)N(c3ccc(C)cc3)C2=O)cc1 (configuration not stated) | i | 1.2 |
| CC(C)(Oc1ccc(Br)cc1)C(=O)N1CCc2ccccc21 | i | 0.08 |
| COc1cccc(/C=C2\C=C(c3ccc(C)cc3)OC2=O)c1OC(C)=O | i | 0.13 |
| O=C(CCl)Nc1sccc1C(=O)c1ccccc1 | i | 0.01 |
| CS(=O)(=O)N(C(=O)NC(=O)NC1CCS(=O)(=O)C1)C1CCCCC1 (configuration not stated) | i | -1.1 |
| CCCC(=O)Nc1nc(C)c(-c2csc(Nc3ccccc3C)n2)s1 | i | -0.19 |
| Cn1cc(S(=O)(=O)N2CCCC2)cc1C(=O)Nc1cccc(C(F)(F)F)c1 | i | -0.52 |
| CC(=O)C1=C(C)NC(=S)NC1c1cccc([N+](=O)[O-])c1 (configuration not stated) | i | -1.7 |
| O=C(Nc1nc2ccc(Cl)cc2s1)c1ccc(N2CCCCC2)c([N+](=O)[O-])c1 | i | 0.97 |
| O=C(NC(Cc1c[nH]c2ccccc12)C(=O)N1CCOCC1)c1cccs1 (configuration not stated) | i | 0.05 |
| COc1cc(NC(=O)c2cc3ccccc3o2)c(OC)cc1Cl | i | 1.2 |
| C#CCNC(=O)C1=C[C@@H](C(C)(C)C)C[C@@H](OCc2ccc(CO)cc2)O1 | i | -0.03 |
| O=S(=O)(c1ccc(NC(=S)NN=C2CCCCC2)cc1)N1CCOCC1 | i | -0.29 |
| O=C(Nc1ccc(N2CCCCC2)cc1)c1ccccc1 | i | 0.09 |
| COc1ccc(N2CCN(S(=O)(=O)CCNC(=O)COc3ccccc3C)CC2)cc1 | i | 1.2 |
| COc1ccccc1C(=O)N/N=C/C(C)=C/c1ccccc1 | i | -0.43 |
| Cc1ccc2ccc(C(Nc3cccc(C(F)(F)F)c3)c3cccnc3)c(O)c2n1 (configuration not stated) | i | -0.12 |
| CN(CC(=O)Nc1cccc(F)c1)CC(=O)Nc1cccc(S(=O)(=O)N2CCCCCC2)c1 | i | -0.97 |
| CCOC(=O)c1cc(CC)sc1NC(=O)CN1C(=O)C(=O)N(CC(C)C)C1=O | i | -0.72 |
| Cc1cccc(Cn2c(Cc3ccccc3)nc3ccccc32)c1 | i | 0.5 |
| Cc1cc(C(=O)CN2C(=O)C(=O)N(CC(C)C)C2=O)c(C)n1-c1ccccc1F | i | -1.2 |
| O=C(CCCC(=O)N(CC(=O)NC1CCCCC1)c1ccccc1F)Nc1ccccn1 | i | 0.02 |
| COc1ccccc1NC(=O)Nc1cc(NC(=O)Nc2ccccc2OC)c(C)nc1C | i | -0.71 |

Copied from the list:
COC(=O)C1CCN(S(=O)(=O)c2cc3c4c(c2)CCN4C(=O)CC3)CC1 in KCNQ2 block baseline shows -1.2
CCCC(=O)Nc1nc(C)c(-c2csc(Nc3ccccc3C)n2)s1 in KCNQ2 block baseline shows -0.19

Part of the list above in order of SMILES length, lowest first.
| Compound | KCNQ2 block | KCNQ2 block baseline |
| --- | --- | --- |
| Cc1ccc(SCCNC(=O)c2ccccc2)cc1 | i | 0.02 |
| O=C(CSc1nnc(-c2ccccc2O)o1)N1CCCCC1 | i | 2.8 |
| CCc1ccc(NC(=O)CSc2nnc(-c3cccs3)n2CC)cc1 | i | 0.14 |
| Cc1cccc(-c2nc(CSCC(=O)N3CCN(c4ccccn4)CC3)c(C)o2)c1 | i | -2 |
| O=C(O)C(Cc1ccccc1)Nc1ccc([N+](=O)[O-])cc1[N+](=O)[O-] (configuration not stated) | i | 0.01 |
| COc1ccc(NC(=O)CN(C)C(=O)c2ccc(N3CCCCCC3)c([N+](=O)[O-])c2)cc1 | i | -0.01 |
| COc1ccc(-c2cc(C(=O)Nc3c(C)n(C)n(-c4ccccc4)c3=O)c3ccccc3n2)cc1OC | i | 0.36 |
